FGF22 binding – binders of recombinant human FGF22 by thermal shift; Q9HCT0; SYPRO orange fluorescence; percent of sucrose octasulfate shift, DMSO zero; calls only at 9.99 µM; 340,000 tested, 1.5% active; AID 651658;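 active means melting point raised past a set limit in the mean and every replicate; inconclusive means no clear call; three in four hits are not shown here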
Target sequence (Q9HCT0 whole entry, looked up): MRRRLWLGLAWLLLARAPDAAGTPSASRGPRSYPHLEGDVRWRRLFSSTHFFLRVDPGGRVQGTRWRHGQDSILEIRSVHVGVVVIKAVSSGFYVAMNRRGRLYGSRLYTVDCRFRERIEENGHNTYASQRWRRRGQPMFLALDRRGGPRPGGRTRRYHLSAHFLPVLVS
MLL AF4-AF9 inh – inhibitors of human MLL-AF4/AF9 interaction. AID 651704. P42568. AlphaScreen, biotin-AF4 peptide binding to FLAG-AF9. 350,000 tested, 0.47% active. inhibition, % at 10 µM;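 active means every replicate reaching a set inhibition limit, whatever the replicate mean, cut at about 25% in these data; inconclusive means mean inhibition reaches that limit but some replicates miss it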;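 further: 0% = plate neutral control median and 100% = total signal loss; the record names both 10 and 1 µM as test concentration; the first replicate is given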
Target sequence (P42568 whole entry, looked up): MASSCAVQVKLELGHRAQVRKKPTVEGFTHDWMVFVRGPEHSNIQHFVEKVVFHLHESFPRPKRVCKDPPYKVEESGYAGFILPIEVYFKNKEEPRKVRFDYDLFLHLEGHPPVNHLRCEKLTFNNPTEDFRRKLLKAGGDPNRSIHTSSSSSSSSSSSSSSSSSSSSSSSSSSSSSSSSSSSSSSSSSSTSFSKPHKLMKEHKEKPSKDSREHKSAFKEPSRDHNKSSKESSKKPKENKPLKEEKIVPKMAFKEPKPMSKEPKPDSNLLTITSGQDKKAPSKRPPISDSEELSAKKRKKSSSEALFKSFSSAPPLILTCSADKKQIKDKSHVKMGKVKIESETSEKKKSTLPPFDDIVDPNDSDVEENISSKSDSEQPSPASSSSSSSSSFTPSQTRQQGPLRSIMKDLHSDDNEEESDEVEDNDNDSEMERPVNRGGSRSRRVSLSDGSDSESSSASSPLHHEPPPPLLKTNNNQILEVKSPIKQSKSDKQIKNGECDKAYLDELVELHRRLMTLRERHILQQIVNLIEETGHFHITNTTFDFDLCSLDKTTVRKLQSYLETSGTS
rRNA inh HTS – selective bacterial rRNA inhibition in E. coli; E. coli WT GFP vs humanized-ribosome RFP mutants, fluorescence, 24 h; stronger effect = lower value; DMSO median 0, no signal -100; GFP signal change (wild-type ribosome), % (concentration not given with the values); 350,000 tested, 1.6% active; AID 720706;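 active means significant combined selectivity score with lowered wild-type GFP, culture density cut under 30%, mutant RFP and density less affected; inactive means any of these conditions unmet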; further: one replicate is shown; some compounds called inactive have numbers as strong as hits
T cruzi inh – T. cruzi replication inhibition; T. cruzi beta-gal in NIH3T3, luminescence, 90 h; 300,000 tested, 1.4% active; inhibition, % (test concentration not listed);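 active means mean inhibition across valid replicates above about 55%, limit read from the data; inconclusive means mean below that limit but half or more replicates reach it; inactive means mean below it, under half of replicates reach it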;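 further: signal also drops with host cell toxicity which is not excluded here; 0% = plate median of DMSO wells and 100% = zero luminescence signal; higher percent means less beta-gal luminescence so fewer parasites; stock transfer was 50 nL into about 50 µL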
RanGTP-Imp inh – disruptors of Ran-importin-beta complex formation – biochemical, FRET, CFP-Ran, YFP-importin-beta, homogeneous, primary screen | 300,000 tested, 1.1% active | inhibition, % (test concentration not listed) | cell-free CFP-Ran/YFP-importin-beta FRET ratio;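 active means most replicates above 15%; inconclusive means exactly half above 15%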;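 further: 0% = DMSO wells and 100% = Ran loaded with GDP instead of GTP; wells of about 40 µL received 100 nL stock; the first replicate is given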
Beta apoptosis – beta cell apoptosis inhibition. INS-1E cytokine-induced death, ATP luminescence, 48 h; percent of positive-control rescue, neutral wells zero. protection from apoptosis, % (concentration not given with the values). 300,000 tested, 0.8% active;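 active means all replicates at 75% or more, or half of them and the mean; inconclusive means half reach 75% but not the mean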;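 further: 0% = cytokine-treated negative control wells and 100% = positive control rescue; higher means more ATP so stronger rescue from cytokine killing; wells of about 40 µL received 100 nL stock; the first replicate is given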
Calb FLC – C. albicans growth modulation with fluconazole; C. albicans CaCi-2 (fluconazole-resistant clinical isolate) + fluconazole, Alamar Blue growth, 48 h; growth inhibition, % (test concentration not listed); 300,000 tested, 0.57% active;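 active means most replicates above 75%; inconclusive means exactly half above 75%; inactive means most below 75%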;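 further: all wells also contain fluconazole at 8 µg/ml as a sub-toxic cotreatment; 0% = median of DMSO wells and 100% = median of geldanamycin control wells; wells of about 8 µL received 7.5 nL stock; the first replicate is given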
ALR H2O2 inh – human ALR oxidase inhibition via reduced H2O2; 290,000 tested, 3.8% active; P55789; inhibition, % (concentration not given with the values); purified ALR, DTT oxidation, H2O2 HRP-luminol luminescence;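 active means mean and each replicate at 75% or more; inconclusive means only one of the two met; inactive means neither met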;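 further: stock transfer was 7.5 nL into about 7.5 µL; 0% = neutral wells and 100% = wells with inactivated enzyme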
Target sequence (P55789 whole entry, looked up): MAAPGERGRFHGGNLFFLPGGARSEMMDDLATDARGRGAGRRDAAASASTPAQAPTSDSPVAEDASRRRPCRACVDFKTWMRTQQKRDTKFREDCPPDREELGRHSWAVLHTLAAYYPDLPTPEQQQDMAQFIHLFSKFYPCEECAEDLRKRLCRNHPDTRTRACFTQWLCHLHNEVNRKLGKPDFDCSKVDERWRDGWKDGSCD
rRNA inh HTS OD600 – further read-out of rRNA inh HTS, marked with its call; OD600 change, %; measured here: OD600 growth;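 optical density of the mix in the first replicate; 0 = DMSO median and -100 = no signal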
rRNA inh HTS RFP – also measured in rRNA inh HTS; calls as there; RFP signal change, %; measured here: RFP humanized mutant strains;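 first replicate; 0 = DMSO median and -100 = no signal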
Numbers without * were called inactive; i = inactive; ? = inconclusive; / = not tested or not shown. The list is partial; rates above refer to the full screens.

SMILES	FGF22 binding	MLL AF4-AF9 inh	rRNA inh HTS	rRNA inh HTS OD600	rRNA inh HTS RFP	T cruzi inh	RanGTP-Imp inh	Beta apoptosis	Calb FLC	ALR H2O2 inh
CCC(=O)N1c2ccc(S(=O)(=O)N3CCCC3)cc2CC1C (stereo not given)	i	-8.4	11	13	0.3	-17	2.3	0	9	1
O=C(O)CCC(=O)Nc1cccc(C(=O)Nc2ccc(Br)cc2)c1	i	-2.4	13	12	0.6	-1	-0.7	4	-2	0
Cc1nn(C)cc1C(C(=O)NC1CCCCC1)N(C(=O)Cc1cccs1)c1ccc(F)cc1 (stereo not given)	i	-1.4	3	12	22	10	-5.8	8	-10	-13
Cc1ccc(C(=O)OC(C)C(=O)NC(C)CCc2ccccc2)o1 (stereo not given)	i	-0.3	3	-3	-0.4	/	/	-4	/	/
COc1ccccc1NC(=O)Cc1nnc(SCC(=O)c2ccc(F)cc2)n1C	i	-1.2	7	15	1.1	-4	0.1	-5	13	1
COc1cc(NC(=O)c2cc(-n3cnnc3)ccc2Cl)cc(OC)c1	/	/	/	/	/	1	4.2	-3	3	-1
FC(F)(F)c1cccc(NCc2n[nH]c(=S)n2C2CCCCC2)c1	i	-12	-53	-81	-26	-4	0.8	-2	7	4
C[C@H](NC(=O)c1nc[nH]c1C(=O)N[C@@H](CCCCNC(=O)OC(C)(C)C)C(=O)OC(C)(C)C)C(=O)OC(C)(C)C	i	5.9	9	-8	17	-24	2.5	6	25	-8
O=C(NCc1ccccc1)C(c1cccnc1)N(C(=O)c1ccccn1)c1cccc(F)c1 (stereo not given)	i	-1.4	0	0	-1.5	33	3.0	-5	1	2
CCOC(=O)C1(CCc2ccccc2)CCN(C(=O)[C@@H]2C[C@@H](C)NC(=S)N2)CC1	i	3.7	-10	-17	-3.5	1	-3.2	-9	31	-9
O=C1CCC(=O)N1OCCOc1ccc2c(c1)CCC2	/	/	/	/	/	-6	5.4	3	-3	5
COC(=O)c1cccc(NC(=S)N2CCOCC2)c1	i	-1.8	9	3	-0.1	-11	?	-2	-10	5
CCOC(=O)Cc1csc(NC(=O)c2ccc(N3CCOCC3)cc2[N+](=O)[O-])n1	i	6.7	-10	-21	-1.1	/	/	0	/	-2
CC(C)n1c(Nn2cnnc2)nc2ccccc21	/	/	/	/	/	-5	2.7	-4	4	10
O=C(O)c1ccc(Nc2ncnc3ccccc23)cc1	i	-0.4	-3	1	-1.4	-4	-0.5	3	4	-8
C=CCc1c(C)[nH]c(=S)c(C#N)c1C	/	/	/	/	/	-2	0.6	-2	2	2
O=C(O)CCC(=O)N1N=C(c2c(-c3ccccc3)c3cc(Cl)ccc3[nH]c2=O)CC1c1cccs1 (stereo not given)	/	0.3	-16	-23	-0.1	-18	-0.7	-7	6	0
CC(=O)c1cccc(NC(=S)NC(=O)c2ccc(C)cc2)c1	i	1.7	12	26	-0.7	6	3.9	-3	?	8
C=CCC1Cc2c(Br)cccc2C(CC=C)N1 (stereo not given)	i	-1.0	3	-3	4.0	-11	-2.7	-9	-14	-8
O=C1C=C(NCCNc2c(F)c(F)c(CO)c(F)c2F)CCC1	/	/	/	/	/	-2	5.5	-4	2	-2
O=C(NCc1ccc2c(c1)OCO2)c1ccc2snnc2c1	/	/	/	/	/	21	-0.9	1	-3	17
O=C(NCc1ccccc1)c1cc[n+](CC(=O)c2cccs2)cc1	i	2.3	1	-8	3.4	10	0.3	-1	2	-8
O=C(COc1ccccc1F)OCC(=O)c1ccc([N+](=O)[O-])cc1	i	-1.9	2	9	-4.2	/	/	5	/	79*
CCCCOc1ccc(NC(=O)CSCC(=O)OCC)cc1	/	/	-9	-5	0.1	-1	-2.1	1	-6	99*
O=C(CS(=O)CC(=O)N(CC(=O)NC1CCCC1)C1CCCCC1)Nc1ccc(F)cc1 (stereo not given)	/	/	/	/	/	9	-3.8	0	-7	1
CC1CCC(C(=O)NC(C(=O)NCc2ccccn2)C(C)C)CC1 (stereo not given)	/	/	/	/	/	-14	3.3	-2	5	-3
CCOC(=O)c1ccc2nc3c(cc2c1)CCS3	/	/	/	/	/	13	7.1	0	11	2
COc1ccc(OC(=O)Cc2cccc3ccccc23)cc1	i	-3.3	7	10	3.3	-5	-4.0	-4	-7	5
COc1cc(/C=C2/SC(=O)NC2=O)ccc1OCc1ccccc1	i	0.7	-27	-45	-1.2	-20	-5.5	14	27	/
O=C(NCc1ccncc1)c1cn(-c2ccccc2)nc1-c1cccnc1	i	1.0	-4	-6	-5.4	-12	?	2	-5	0
COc1ccc(-c2cn3ccc4ccccc4c3n2)cc1	/	/	/	/	/	4	-1.7	4	0	?
Cc1nc2nc(SCc3ccccc3)[nH]n2c(=O)c1CCC(C)C	i	0.5	-53	-62	-13	5	-1.4	-3	1	43
COc1ccccc1N1CCN(C(=O)c2ccc3c(=O)n(Cc4ccco4)c(=S)[nH]c3c2)CC1	/	/	-6	-17	0.4	-2	?	-3	3	0
CCOc1ccc(-c2nc(CSCC(=O)N3CCN(c4cccc(OC)c4)CC3)c(C)o2)cc1	i	4.6	-2	-13	-4.1	0	0.7	43	0	99*
C=CCNC(=O)c1ccc2nccnc2c1	/	/	19	18	-0.5	-8	-3.9	/	-4	-9
O=[N+]([O-])c1cc([N+](=O)[O-])c(Oc2ccccc2F)cc1NN1CCCCC1	i	-19	12	15	-1.4	-11	6.2	/	1	4
CCC(C)(C)NC(=O)C(c1ccncc1)N(C(=O)c1sc(C)nc1C)c1ccc(C)cc1 (stereo not given)	i	-0.5	3	4	3.0	-10	-1.4	/	2	8
S=c1[nH]nc(-c2ccc3ccccc3n2)o1	/	/	/	/	/	-4	1.5	-7	1	91*
Cc1cc(C#N)c(C)n1-c1cc(C(F)(F)F)ccc1N1CCOCC1	i	13	-20	-22	27	-6	6.7	-5	-9	-6
CCC(C)C(NC(N)=O)C(=O)Nc1ccc(C)c(Cl)c1 (stereo not given)	/	/	/	/	/	2	-5.4	-9	-16	-1
Cc1c(NS(=O)(=O)c2ccc(N=NN(C)C)cc2)c(=O)n(-c2ccccc2)n1C	i	-1.6	1	8	-1.8	-2	0.9	-3	-18	-17
NC(=O)COC(=O)CC12CC3CC(CC(Br)(C3)C1)C2	i	0.1	9	1	-3.9	-9	-4.3	3	-4	-1
CC1CCN(C(=O)COC(=O)CCC(=O)c2ccc(Cl)cc2)CC1	i	1.5	1	-6	-0.2	/	/	-3	/	-8
Cc1cc(C)c(S(=O)(=O)c2ccccc2F)c(=O)[nH]1	i	-2.9	10	8	-1.5	-3	-0.6	-5	5	/
COc1cc(C(=O)NCC(=O)N/N=C/c2ccco2)cc(OC)c1OC	i	2.0	8	9	0.1	-2	1.2	-6	18	-5

Structures shown so far containing a nitro group on carbon (3):
SMILES	FGF22 binding	MLL AF4-AF9 inh	rRNA inh HTS	rRNA inh HTS OD600	rRNA inh HTS RFP	T cruzi inh	RanGTP-Imp inh	Beta apoptosis	Calb FLC	ALR H2O2 inh
CCOC(=O)Cc1csc(NC(=O)c2ccc(N3CCOCC3)cc2[N+](=O)[O-])n1	i	6.7	-10	-21	-1.1	/	/	0	/	-2
O=C(COc1ccccc1F)OCC(=O)c1ccc([N+](=O)[O-])cc1	i	-1.9	2	9	-4.2	/	/	5	/	79*
O=[N+]([O-])c1cc([N+](=O)[O-])c(Oc2ccccc2F)cc1NN1CCCCC1	i	-19	12	15	-1.4	-11	6.2	/	1	4

(more compounds)
SMILES	FGF22 binding	MLL AF4-AF9 inh	rRNA inh HTS	rRNA inh HTS OD600	rRNA inh HTS RFP	T cruzi inh	RanGTP-Imp inh	Beta apoptosis	Calb FLC	ALR H2O2 inh
CCc1ccc(OCCn2ccnc2)cc1	i	1.8	3	3	-1.2	-19	-13	-5	-3	0
CCCC(=O)Nc1cccc(NC(=O)c2ccc([N+](=O)[O-])cc2Cl)c1	/	4.0	-3	-15	-0.2	22	-3.3	-3	1	-139
CC1CCN(Cc2nc(Cl)c3c4c(sc3n2)CCC4)CC1	i	-0.5	-4	-16	9.3	-9	-4.3	-6	-4	18
CN(C)C(=O)CCc1nc2sc3c(c2c(=O)[nH]1)CCCC3	/	/	/	/	/	-8	1.4	-4	11	-10
CCC(C)N(C(=O)CCC(=O)Nc1cc(C)on1)C(C(=O)NC(C)(C)C)c1ccccc1Cl (stereo not given)	i	0.0	-1	3	2.2	18	-0.2	-3	4	2
Cc1cnc(=O)[nH]c1SCC(=O)c1ccc(F)cc1	i	-0.1	1	7	-3.8	-6	16*	-15	5	99*
O=C(CNc1cccc2ccccc12)N/N=C/c1ccc(OC(=O)/C=C/c2ccco2)cc1	i	5.4	6	2	3.2	6	5.9	/	0	/
Oc1[nH]c2c(Cl)cc(Cl)cc2c1N=NC(=S)NCC1CCCO1 (stereo not given)	/	/	/	/	/	44	0.8	52	97*	-11
Cc1cccc(CCNC(=O)C2CCC(CNc3c(N4CCCC4)c(=O)c3=O)CC2)c1 (stereo not given)	i	-2.2	1	6	-1.7	-23	6.7	2	-5	-1
COc1ccc(NC(=O)Nc2c(SC)nsc2SC)cc1	i	-1.1	8	7	0.1	18	-6.5	6	0	/
CN(C)C(=O)c1ccccc1NC(=O)Cc1cccc2ccccc12	i	3.6	4	6	1.4	-1	-0.1	-4	1	-3
CCCCNC(=O)CN1C(=O)NC2(CCOc3ccccc32)C1=O (stereo not given)	i	2.0	-1	2	-1.7	-4	-0.4	-2	-17	1
Cc1cc(/C(N)=N/OC(=O)Nc2ccccc2)no1	i	/	11	-9	-3.1	/	-2.5	/	16	-2
O=C(/C=C/c1ccc(F)cc1)NC(=S)Nc1ccccc1O	i	-1.1	-20	-22	0.9	-16	-3.6	6	-9	-11
CCSc1nc2ccccc2c(=O)n1CCc1ccc(OC)c(OC)c1	i	-3.6	-33*	-4.8*	-4.1*	17	5.0	6	2	3
COc1ccccc1N(C)S(=O)(=O)c1ccc(C(=O)Nc2cc(F)ccc2C)cc1	i	3.2	-12	-24	-5.6	/	/	7	/	-12
Fc1ccc2cc(-c3cccnc3)ncc2c1	i	-2.0	2	-2	1.8	/	/	8	/	-2
CCN(C(=O)COC(=O)C1CCN(S(=O)(=O)c2c(Cl)cccc2Cl)CC1)C1CCCCC1	i	-1.2	-2	-29	0.2	17	-2.5	0	-1	-2
O=C(Nc1cc(=O)[nH]c2ncnn12)c1ccccc1F	i	-6.4	4	-1	-2.5	18	4.0	4	2	/
CC(C)(C)C(=O)Nc1nnc(SCC(=O)NC2CC2)s1	i	7.3	4	9	-1.4	-13	-1.5	-2	11	-1
COc1cc2c(cc1OC)C(c1cc([N+](=O)[O-])ccc1O)NCC2 (stereo not given)	i	-0.7	15	5	0.3	-5	-1.9	-7	4	7
O=C(NCCc1c[nH]c2ccccc12)c1ccc2nc[nH]c2c1	i	20	-8	-5	-2.6	-11	7.6	/	-4	22
COc1ccc2sc(-c3ccc(N(C)C)cc3)c(C#CC(C)(C)O)c2c1	i	-11	17	3	-7.7	/	/	-5	/	-5
Cc1cccc(NC(=S)N/N=C/C(C)c2ccccc2)c1C (stereo not given)	i	-1.8	-2	-8	4.9	2	-3.9	2	9	17

From PubChem
